D2 PAM – human D2 receptor positive allosteric modulation | P14416 | DiscoveRx D2 beta-arrestin cells, luminescence, 90 min; 100% = 57 uM dopamine signal | potentiation, % (test concentration not listed) | actives 0.23% (n = 360,000); active = potentiation of 50% or more; inconclusive = 30% to 50%; inactive = 30% or less;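 note: compound concentration not given in the record; tested on top of an EC20 dose of dopamine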
Target sequence (P14416 whole entry, looked up): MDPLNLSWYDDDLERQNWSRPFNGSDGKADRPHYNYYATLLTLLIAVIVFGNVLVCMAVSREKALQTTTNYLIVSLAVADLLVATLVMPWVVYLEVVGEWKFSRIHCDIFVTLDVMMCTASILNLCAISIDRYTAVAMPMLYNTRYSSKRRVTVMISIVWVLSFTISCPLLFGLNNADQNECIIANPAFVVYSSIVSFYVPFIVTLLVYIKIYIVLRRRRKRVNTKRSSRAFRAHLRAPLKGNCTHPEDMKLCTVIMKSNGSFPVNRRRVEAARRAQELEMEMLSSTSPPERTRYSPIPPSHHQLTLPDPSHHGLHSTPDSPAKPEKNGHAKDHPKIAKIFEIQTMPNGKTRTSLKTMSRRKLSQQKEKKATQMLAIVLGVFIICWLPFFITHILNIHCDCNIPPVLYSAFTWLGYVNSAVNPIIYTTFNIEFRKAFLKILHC
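PathHunter D2 cells, attached overnight at 37 deg C, received compound in DMSO plus dopamine at EC20 (50 nM final) for 90 min at 37 deg C. Beta-arrestin recruitment was read as luminescence after 1 h with detection reagent at ambient temperature.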
D2 ag – activates the human D2 dopamine receptor | P14416 | DiscoveRx PathHunter D2 beta-arrestin, luminescence, 90 min; 100% = 57 uM dopamine signal | activation, % (concentration not given with the values) | actives 0.084% (n = 360,000) | AID 624465; in the data active = activation above about 40%; inconclusive = about 15% to 40%; inactive = below about 15%; note: compound concentration not given in the record; the text of the record calls up to 30% inactive
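Agonist mode: compounds alone added to overnight-plated D2 PathHunter cells for 90 min at 37 C, with 57 uM final dopamine (EC100) defining full response. Beta-arrestin recruitment detected by chemiluminescent reagent, read after 1 h at ambient temperature.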
TRPV1 potentiator – potentiators of human vanilloid receptor 1 (TRPV1); TRPV1-expressing cells, Fluo-8 calcium influx, capsaicin EC20 potentiation; host cell line not named in the record; control for the full effect not named in the record; potentiation, % at 8.33 µM; Q8NER1; actives 0.02% (n = 320,000); active means potentiation above 80%; inconclusive means 30% to 80%; inactive means below 30%; note: 0% is about no effect
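TRPV1-expressing cells were cultured overnight at 35.5C and loaded with Fluo-8 calcium dye for 40 to 90 min at room temperature. After a 10 s baseline, compound was added and calcium influx was read kinetically for 3 min (ex 480/em 520 nm).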
Six1-Eya2 blk – blocks human Six1 binding to Eya2. Q15475+O00167. AlphaScreen GST-Six1/His-Eya2 binding, biochemical; active compounds read low; control for the full effect not named in the record. activity change, % (concentration not given with the values). actives 0.56% (n = 360,000). AID 651725; in the data active = activity change below about -65%; inconclusive = about -30% to -65%; inactive = above about -30%; note: % is set by controls: 0 for no effect and ±100 for the full control effect
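AlphaScreen luminescence read after one hour at 37 °C in darkness. Pin-transferred compounds met GST-Six1 and His-Eya2 protein (5X stock 250 nM/500 nM) plus glutathione donor and Ni-chelate acceptor beads (5X, 50 ug/mL).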
CtBP-E1A blk – CtBP/E1A binding inhibition; actives 0.49% (n = 340,000); activity change, % (concentration not given with the values); AlphaScreen GST-E1A/His-CtBP binding, 1536-well; active compounds read low; control for the full effect not named in the record; in the data active means activity change below about -65%; inconclusive means about -30% to -65%; inactive means above about -30%; note: % is set by controls: 0 for no effect and ±100 for the full control effect
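Homogeneous bead-based format: GST-tagged E1A captured on glutathione donor beads, His-tagged CtBP on nickel acceptor beads; compounds precede bead addition by 2 h at 37 °C.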
PINK1 modulator – PINK1 expression modulation | PINK1 immunofluorescence, high-content cytometry, 24 h | AID 624263 | Potency, µM (series often up to 76.6 µM), inactives show top-dose activation (PINK1 increase), most hits filed as activators | actives 0.2% (n = 410,000); active = well fitted activation curve with a large enough effect; inconclusive = small, poorly fitted or top-dose-only effect; inactive = flat fitted curve, though single readings scatter; cell line not stated here;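 note: potency is the fitted concentration of half-maximal effect; % of control where 0% means no effect; nearly all actives have a fitted effect of over 65% in size; a mitochondrial uncoupler was the plate control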
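Fluorescence from anti-PINK1 antibody, together with nuclear and cell stains, was scanned on a laser-scanning cytometer. Before staining, stable-line cells were incubated 24 hours with compounds at 5 concentrations; primary antibody 12 h at 10 degrees C.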
Sfp inh – Sfp phosphopantetheinyl transferase inhibition; actives 3.5% (n = 310,000); Biochemical Sfp PPTase activity, qHTS; AID 1490; Potency, µM, inactives show max response, negative = inhibition, usual class: inhibitors; Q9F4F7; active = well fitted inhibition curve with a large enough effect; inconclusive = small, poorly fitted or top-dose-only effect, or another doubt; inactive = no such curve, though single readings can be large or run the other way;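 note: the enzyme is Sfp with the accession as filed and its product quenches rhodamine fluorescence; potency is the fitted concentration of half-maximal effect; 0% = enzyme reaction without inhibitor and -100% = no enzyme wells; top concentration of the series not given in the record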
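Reaction rates are the 30-min fluorescence difference (ex 525, em 598 nm) in wells containing 15 nM Sfp, 5 uM rhodamine-CoA and 12.5 uM BHQ-2-YbbR at pH 7.6 with 10 mM MgCl2.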
Active calls of the source: *; [ ] = remark or other dose.

How did CC(=O)c1cccc(NC(=O)COC(=O)c2n[nH]c3ccccc23)c1 do in these assays?
D2 PAM: -0.9; D2 ag: 0.4; TRPV1 potentiator: 8.7; Six1-Eya2 blk: 0.2; CtBP-E1A blk: 1.8; PINK1 modulator: 0.6%; Sfp inh: 11.4%

What do the screens show for `Cc1ccc(Cl)c(NC(=O)CN2C(=O)C(C)N(c3ccc(F)cc3)C2=O)c1Cl` (stereo not drawn)?
D2 PAM: -14.0; D2 ag: -3.4; Six1-Eya2 blk: 0.9; CtBP-E1A blk: -15.7; PINK1 modulator: -0.9%

What do the screens show for `COc1ccc(CNC(=O)CN(C)S(=O)(=O)c2ccc(Cl)cc2)cc1`?
D2 PAM: -10.1; D2 ag: -1.3; TRPV1 potentiator: -5.8; Six1-Eya2 blk: -0.9; CtBP-E1A blk: 4.7; PINK1 modulator: -0.1%; Sfp inh: 8.3%

How did Cc1cccc(Nc2nnc(SCC(=O)Nc3cccnc3Cl)s2)c1 do in these assays?
D2 PAM: -0.8; D2 ag: -3.2; TRPV1 potentiator: -7.8; Six1-Eya2 blk: -18.9; CtBP-E1A blk: -4.4; PINK1 modulator: 0.8%; Sfp inh: -19.5%

How did CCOCCCNC(=O)c1ccc(CS(=O)(=O)Cc2cccc(C)c2)o1 do in these assays?
D2 PAM: -2.2; D2 ag: 1.6; TRPV1 potentiator: -7.7; Six1-Eya2 blk: 5.7; CtBP-E1A blk: 4.1; PINK1 modulator: 1.2%[38.3 µM]; Sfp inh: 6.5%

How did COc1ccc(/C=C\C(=O)NCc2ccc3[nH]c(C)cc3c2)cc1OC do in these assays?
D2 PAM: -8.7; D2 ag: -5.6; TRPV1 potentiator: 6.9; Six1-Eya2 blk: -2.8; CtBP-E1A blk: -13.1; PINK1 modulator: 0.8%; Sfp inh: 4.5%

What do the screens show for `Cc1onc(-c2ccccc2Cl)c1C(=O)N(Cc1ccccc1)C(C)C`?
D2 PAM: -3.3; D2 ag: -0.2; TRPV1 potentiator: -3.1; Six1-Eya2 blk: 2.2; CtBP-E1A blk: 5.9; PINK1 modulator: 1.8%; Sfp inh: 0.4%

What do the screens show for `CC(=O)Nc1ccc(SCC(=O)OCC(=O)NC(=O)NC2CCCC2)cc1`?
D2 PAM: 6.9; D2 ag: -2.2; TRPV1 potentiator: -2.4; Six1-Eya2 blk: -2.4; CtBP-E1A blk: 9.5; PINK1 modulator: -0.6%; Sfp inh: 10.5%

How did O=S(=O)(CCSc1nc2ccccc2o1)Cc1ccccc1 do in these assays?
D2 PAM: -12.3; D2 ag: -1.1; TRPV1 potentiator: -1.6; Six1-Eya2 blk: -0.3; CtBP-E1A blk: 23.8; PINK1 modulator: -2.7%[38.3 µM]; Sfp inh: -2.6%

Results for CCC(C)[C@H](N)c1cn([C@@H](CCCCN)C(=O)N2CCNCC2)nn1 (stereo partly drawn) ?
D2 PAM: -8.1; D2 ag: -1.7; TRPV1 potentiator: 11.6; Six1-Eya2 blk: -2.3; CtBP-E1A blk: -2.0; PINK1 modulator: 6.7%; Sfp inh: 1.2%

Results for Cc1c(/C(O)=C2\C(=O)C(=O)N(CCCN(C)C)C2c2cccs2)cnn1-c1ccccc1 (stereo not drawn) ?
D2 PAM: -3.6; D2 ag: 6.6; Six1-Eya2 blk: 18.7; CtBP-E1A blk: 0.0; PINK1 modulator: 0.3%

What do the screens show for `Cc1nc2c(-c3ccccc3)cnn2c(N)c1-c1ccccc1`?
D2 PAM: -5.1; D2 ag: -1.5; TRPV1 potentiator: -13.8; Six1-Eya2 blk: 26.5; CtBP-E1A blk: -1.3; PINK1 modulator: 0.8%; Sfp inh: -2.4%

Results for Cc1cc(=O)oc2cc(OC(C)C(=O)NCC3CCC(C(=O)O)CC3)ccc12 (stereo not drawn) ?
D2 PAM: -18.2; D2 ag: -2.3; TRPV1 potentiator: -7.9; Six1-Eya2 blk: 0.0; CtBP-E1A blk: 3.0; PINK1 modulator: 0.9%; Sfp inh: 12.6%

How did COc1cccc(/C=C2\SC(=S)N(NS(=O)(=O)c3ccccc3)C2=O)c1OC do in these assays?
D2 PAM: -9.2; D2 ag: -3.0; TRPV1 potentiator: 10.9; Six1-Eya2 blk: -8.0; PINK1 modulator: 2.4%; Sfp inh: -13.9%

How did O=C1c2ccccc2[C@@H]2C[C@@H](O)[C@H](Nc3cccc(C(F)(F)F)c3)CCN12 do in these assays?
D2 ag: 3.4; Six1-Eya2 blk: -22.2; CtBP-E1A blk: -6.1; PINK1 modulator: -0.1%

How did CCOC(=O)c1cnc(SC2CC(=O)N(c3ccc(C)cc3)C2=O)nc1N (stereo not drawn) do in these assays?
D2 PAM: -2.7; D2 ag: -1.8; TRPV1 potentiator: inconclusive; Six1-Eya2 blk: 1.8; CtBP-E1A blk: 9.7; PINK1 modulator: 1.0%; Sfp inh: -1.4%

What do the screens show for `Cc1ccccc1C(=O)N1CCC(C(=O)Nc2cccc(F)c2)CC1`?
D2 PAM: -27.1; D2 ag: -1.4; TRPV1 potentiator: -8.3; Six1-Eya2 blk: 6.0; CtBP-E1A blk: 9.1; PINK1 modulator: 0.4%; Sfp inh: 15.2%

How did O=C1NC2(CCc3ccccc32)C(=O)N1CCOc1ccc(Cl)cc1 (stereo not drawn) do in these assays?
D2 PAM: -11.0; D2 ag: -4.4; TRPV1 potentiator: 15.2; Six1-Eya2 blk: -2.6; CtBP-E1A blk: -1.1; PINK1 modulator: -2.9%; Sfp inh: 0.3%

Results for CCCCc1cc(=O)oc2cc(C)cc(OC(C)C(=O)O)c12 (stereo not drawn) ?
D2 PAM: -2.2; D2 ag: -2.0; TRPV1 potentiator: 9.2; Six1-Eya2 blk: 1.7; CtBP-E1A blk: 2.1; PINK1 modulator: 2.8%[38.3 µM]; Sfp inh: 36.7%

What do the screens show for `CCOC(=O)c1cc2cc(F)ccc2nc1C`?
D2 PAM: 21.1; D2 ag: -7.6; TRPV1 potentiator: 0.7; Six1-Eya2 blk: 9.3; CtBP-E1A blk: 1.5; PINK1 modulator: 1.5%; Sfp inh: 17.7%

Results for COc1ccccc1N1CCN(CC(=O)Nc2ccc3c(c2)OCCO3)CC1 ?
D2 PAM: 4.8; D2 ag: 1.0; TRPV1 potentiator: 16.4; Six1-Eya2 blk: 6.1; CtBP-E1A blk: -15.9; PINK1 modulator: -0.7%; Sfp inh: -23.1%

How did COc1cc(C#N)ccc1OCC(=O)Nc1cccc(S(=O)(=O)N2CCCC2)c1 do in these assays?
D2 PAM: -12.4; D2 ag: -0.6; TRPV1 potentiator: -7.5; Six1-Eya2 blk: -13.1; PINK1 modulator: -0.1%; Sfp inh: 14.2%

Results for CCN(CC(=O)Nc1ccccc1C(=O)Nc1ccccc1)Cc1nc2ccccc2c(=O)[nH]1 ?
D2 PAM: -3.8; D2 ag: -1.7; TRPV1 potentiator: 3.5; Six1-Eya2 blk: -2.3; CtBP-E1A blk: -0.3; PINK1 modulator: 1.2%; Sfp inh: 0.2%

Results for O=C(N/N=C/c1ccc(OC(=O)c2ccccc2Cl)cc1)c1ccccn1 ?
D2 PAM: -23.9; D2 ag: -1.9; TRPV1 potentiator: 4.1; Six1-Eya2 blk: -7.7; CtBP-E1A blk: 1.4; PINK1 modulator: 14.6%; Sfp inh: 19.7%

What do the screens show for `COc1ccc(CN(C(=O)c2snc(C(N)=O)c2N)C(C(=O)NC2CCCC2)c2ccc(OC)cc2)cc1` (stereo not drawn)?
D2 PAM: -4.0; D2 ag: -3.1; TRPV1 potentiator: 5.1; Six1-Eya2 blk: 2.8; CtBP-E1A blk: -0.9; PINK1 modulator: 1.8%; Sfp inh: 12.7%

What do the screens show for `O=C(CSc1nncs1)Nc1ccc2[nH]c(=O)[nH]c2c1`?
D2 PAM: -0.4; D2 ag: 4.6; TRPV1 potentiator: 3.3; Six1-Eya2 blk: -24.8; CtBP-E1A blk: -1.8; PINK1 modulator: 2.0%

How did COc1ccc(-c2c3c(=O)n(C)c(=O)n(C)c3cn2-c2ccccc2)cc1 do in these assays?
D2 PAM: -15.0; D2 ag: -3.8; TRPV1 potentiator: -15.5; Six1-Eya2 blk: -15.2; CtBP-E1A blk: -2.8; PINK1 modulator: 2.3%; Sfp inh: 2.6%

How did COC(=O)c1cc2c(ccc3ccccc32)oc1=O do in these assays?
D2 PAM: 5.6; D2 ag: -1.7; Six1-Eya2 blk: -14.6; PINK1 modulator: 1.1%

How did CCOC(=O)C1=C(CC)Nc2ccccc2N=C1NC(=O)c1oc2ccccc2c1C do in these assays?
D2 PAM: inconclusive; D2 ag: inconclusive; TRPV1 potentiator: 3.7; Six1-Eya2 blk: -3.5; CtBP-E1A blk: -4.2; PINK1 modulator: -0.7%; Sfp inh: 11.6%

What do the screens show for `C(#Cc1ccccc1)CN1CCOCC1`?
D2 PAM: -1.6; D2 ag: 2.4; TRPV1 potentiator: -1.6; Six1-Eya2 blk: 6.0; CtBP-E1A blk: 8.6; PINK1 modulator: 0.3%; Sfp inh: 10.5%

What do the screens show for `Cc1ccc(S(=O)(=O)Nc2cc(C)c(O)cc2C)cc1`?
D2 PAM: 4.7; D2 ag: 3.4; TRPV1 potentiator: 21.5; Six1-Eya2 blk: 4.9; CtBP-E1A blk: -19.7; PINK1 modulator: 2.7%; Sfp inh: -0.1%

What do the screens show for `CC1(c2ccc(OC(F)F)cc2)NC(=O)N(CC(=O)N2c3ccccc3NC(=O)C2(C)C)C1=O` (stereo not drawn)?
D2 PAM: -2.0; D2 ag: 0.3; TRPV1 potentiator: 14.4; Six1-Eya2 blk: -2.5; CtBP-E1A blk: 0.7; PINK1 modulator: 1.6%

What do the screens show for `COc1cc2[nH]c(C(=O)N3CCN(c4ccccc4F)CC3)cc2c(OC)c1OC`?
D2 PAM: -7.8; D2 ag: 1.6; TRPV1 potentiator: -6.7; Six1-Eya2 blk: -8.1; PINK1 modulator: 1.1%; Sfp inh: 1.7%

How did N=c1n(CCN2CCCCC2)c2ccccc2n1CC(=O)c1cccc([N+](=O)[O-])c1 do in these assays?
D2 PAM: 5.1; D2 ag: 6.2; TRPV1 potentiator: -15.7; Six1-Eya2 blk: -20.9; CtBP-E1A blk: -18.0; PINK1 modulator: 13.9%; Sfp inh: 1.4%

Results for Cn1c(=O)oc2cc(S(=O)(=O)NC(Cc3ccccc3)C(=O)N3CCCCC3)ccc21 (stereo not drawn) ?
D2 PAM: -4.5; D2 ag: -7.9; Six1-Eya2 blk: -1.8; CtBP-E1A blk: 1.2; PINK1 modulator: 0.5%; Sfp inh: 0.2%
